VACV mCherry inh: qHTS for Stage-Specific Inhibitors of Vaccinia Orthopoxvirus: mCherry Reporter Primary qHTS | Vaccinia virus mCherry reporter infection, fluorescence; about a quarter of the inactives have no number | Potency, µM (series often up to 36.5 µM), for the others: at the top dose activity change, negative = inhibition, usual class: inhibitors | 0.63% of 310,000 active; active = well fitted inhibition curve with a large enough effect; inconclusive = small, poorly fitted or top-dose-only effect; inactive = no such curve, though single readings can be large or run the other way; tested in A549 cells; note: nearly all actives have a fitted effect of over 35% in size; inactives centre near -10
Vaccinia Venus: qHTS for Stage-Specific Inhibitors of Vaccinia Orthopoxvirus: Venus Reporter Primary qHTS. Vaccinia virus Venus reporter expression, fluorescence. Potency, µM (doses to about 36.5 µM), for inactives: at the highest dose activity change, negative = inhibition, hits mostly inhibitors. 0.46% of 330,000 active; active means well fitted inhibition curve with a large enough effect; inconclusive means small, poorly fitted or top-dose-only effect; inactive means no such curve, though single readings can be large or run the other way; tested in A549 cells; note: nearly all actives have a fitted effect of over 30% in size; inactives centre near -10
* = called active by the depositor; i = inactive; ? = inconclusive; / = not tested or not shown; & = joins results of further samples; [ ] = remark or other dose. % is set by controls: 0 for no effect and ±100 for the full control effect; potency is the fitted concentration of half-maximal effect.

The first 4 compounds, ahead of the listing:
SMILES	VACV mCherry inh	Vaccinia Venus
O=C(Nc1nc2cc3c(cc2s1)OCCO3)c1ccncc1	i	-4%
O=C(c1cc(-c2ccccn2)nc2ccc(Br)cc12)N1CCN(S(=O)(=O)c2ccccc2)CC1	5%	24%
Cc1ccc(S(=O)(=O)Nc2ccc(C(=O)N3CCCC3)cc2)c(C)c1NS(C)(=O)=O	i	12%
COc1ccc(NC(=O)C23CC4CC(CC(Cl)(C4)C2)C3)cc1S(=O)(=O)N1CCOCC1	-13%	1%

The list itself, from the start:
SMILES	VACV mCherry inh	Vaccinia Venus
O=C(Nc1nc2cc3c(cc2s1)OCCO3)c1ccncc1	i	-4%
O=C(c1cc(-c2ccccn2)nc2ccc(Br)cc12)N1CCN(S(=O)(=O)c2ccccc2)CC1	5%	24%
Cc1ccc(S(=O)(=O)Nc2ccc(C(=O)N3CCCC3)cc2)c(C)c1NS(C)(=O)=O	i	12%
COc1ccc(NC(=O)C23CC4CC(CC(Cl)(C4)C2)C3)cc1S(=O)(=O)N1CCOCC1	-13%	1%
O=C(NCC(c1ccc2c(c1)OCO2)N1CCN(c2ccccc2)CC1)C(=O)Nc1ccc(F)cc1 (configuration not stated)	i	-6%
Cc1oc(-c2ccccc2)cc1C(=O)NC1CCN(Cc2ccccc2)CC1	i	-14%
CCCCn1c(-c2cccc(F)c2)nc2c1c(=O)[nH]c(=O)n2CC(C)C	-12%	0%
Cc1ccc(S(=O)(=O)NCc2ccc(C(=O)NC3CC3)cc2)cc1	-11%	-12%
COc1ccccc1NS(=O)(=O)c1cc2c3c(c1)CC(=O)N3CCC2	-9%	-1%
COc1ccc(-c2cc(C(=O)Oc3ccc(C)cc3)c3cc(C)ccc3n2)cc1	-1%	5%
COc1cc([C@@H]2c3cc4c(cc3[C@H](O)[C@H]3COC(=O)[C@H]23)OCO4)cc(OC)c1OC	?	?
Cc1cc(C)cc(N=C2SC(CC(=O)Nc3ccccc3)C(=O)N2CCN2CCOCC2)c1 (configuration not stated)	-31%	-18%
CCS(=O)(=O)N1Cc2ccccc2CC1C(=O)NCCc1c[nH]c2ccccc12 (configuration not stated)	-16%	-10%
Cn1cc(CN2CCN(c3cnccn3)CC2)c(-c2cccc(Cl)c2)n1	0%	-8%
Cn1c(=O)n(CCc2ccccc2)c(=O)c2c1nc1n2CCCN1c1ccccc1	-7%	-11%
CCN(CC)CCNC(=O)Cn1cnc2sc(C)c(S(=O)(=O)N3CC(C)CC(C)C3)c2c1=O (configuration not stated)	i	-1%
O=C(NC(Cc1ccccc1)C(=O)N1CCCC1C(=O)O)c1ccccc1 (configuration not stated)	/	-8%
C=CCc1cc(Cl)ccc1OCCCNC(C)CC (configuration not stated)	-5%	-23%
Cc1ccc(C)c(NC(=O)C2CCCN(S(=O)(=O)c3ccc4[nH]c(=O)ccc4c3)C2)c1 (configuration not stated)	-2%&-12%	5%&-7%
CC(C)C(C(=O)NCC1CCCO1)N(Cc1ccco1)C(=O)CNS(=O)(=O)c1ccccc1 (configuration not stated)	/	?
O=C(/C=C/c1ccc(N2CCC(c3ccccc3)=N2)cc1)c1ccccc1	i	i
CC(C)N(C(=O)COC(=O)[C@H](C)NC(N)=O)c1ccccc1	-6%	-11%
O=C(CCNS(=O)(=O)c1ccc(F)cc1)N1CCN(c2ncccn2)CC1	i	-1%
O=C(NCC(c1ccco1)N1CCCCC1)c1cccc(S(=O)(=O)Nc2ccc(F)cc2)c1 (configuration not stated)	-17%	-17%
O=C1C(Cl)=C(NCCc2ccccc2)C(=O)c2ccccc21	-23%	25%
CC1CN(C(=O)c2cccs2)CCN1C(=O)c1cccs1 (configuration not stated)	-21%	-5%
Cc1ccnc(N/C=C(\C#N)c2nc(-c3cccc(Br)c3)cs2)c1	-11%	-5%
CCCCOc1ccc(C(=O)NCC(=O)OCC(=O)N2CCN(S(=O)(=O)c3ccc(C)cc3C)CC2)cc1	i	-15%
Cc1ccc(Cl)cc1NS(=O)(=O)c1cc2c3c(c1)CC(=O)N3CCC2	-17%	-10%
Cc1ncc2c(c1CNC(=O)c1ccc3c(c1)OCO3)CCN(C(=O)c1csc3c1CCCC3)C2	-15%	-6%

3 structures from above, ordered by length of the SMILES, rising:
SMILES	VACV mCherry inh	Vaccinia Venus
O=C(CCNS(=O)(=O)c1ccc(F)cc1)N1CCN(c2ncccn2)CC1	i	-1%
O=C(NCC(c1ccco1)N1CCCCC1)c1cccc(S(=O)(=O)Nc2ccc(F)cc2)c1 (configuration not stated)	-17%	-17%
COc1ccc(NC(=O)C23CC4CC(CC(Cl)(C4)C2)C3)cc1S(=O)(=O)N1CCOCC1	-13%	1%

More structures.
SMILES	VACV mCherry inh	Vaccinia Venus
CC(=O)Nc1cccc(C(=O)OCC(=O)NCc2ccc(F)cc2)c1	-7%	-11%
CC1(c2nnnn2Cc2ccccc2)CCC(=O)N1CCc1ccc(O)cc1 (configuration not stated)	3%	-7%
COc1cccc(-n2nc(C(=O)O)c3ccccc3c2=O)c1	-15%	-9%
CCCN(CCC)c1cc(C)nc2nc(-c3ccc(C(C)(C)C)cc3)nn12	-4%	-7%
N#Cc1ccc(CSc2ccc(S(=O)(=O)N3CCCCCC3)cn2)cc1	-14%	-11%
COc1cc(/C=C/CNC[C@H]2O[C@@H](n3cnc4c(N)ncnc43)[C@H](O)[C@@H]2O)ccc1O	3%	-1%
Cn1nccc1NS(=O)(=O)c1ccc(F)cc1	i	1%
COc1ccc(/C=C/C(=O)c2ccc(O)cc2)cc1CN1CCOCC1	?	?
COc1ccccc1CNC(=O)CS(=O)Cc1nc(-c2ccccc2C)oc1C (configuration not stated)	17%	-8%
Cc1ccc2nc(C)c(C(=O)N/N=C/c3ccc(N4CCOCC4)cc3)cc2c1	i	-23%
COc1cccc(-c2nc(-c3ccc4c(c3)NC(=O)CO4)cs2)c1	-5%	-15%
CS(=O)(=O)N(CC(=O)NCc1ccco1)c1ccc(OCc2ccccc2)cc1	i	-2%
CC(NC(=O)c1ccc2c(c1)C(=O)N(Cc1cccnc1)C2=O)c1ccccc1 (configuration not stated)	-2%	-12%
CC(C)(C)c1ccc(O)c(O)c1	-7%	-15%
COc1ccc(CNC(=O)C2CCN(C(=O)Cc3ccccc3)CC2)cc1	-1%	19%
CCN1CCN(c2cc(C)c3cc(NC(=O)c4cccc(Cl)c4)ccc3n2)CC1	-13%[7.34 µM]	-6%[7.34 µM]
COc1ccc(-c2csc(N(CCCN(C)C)C(=O)c3ccc(C)cc3)n2)cc1	-12%	?
O=[N+]([O-])c1ccc(N2CCCC2)nc1N1CCCC1	i	-15%
O=C1CCCc2oc3c(c21)CCCC3	-4%	4%
COC(=O)C1=C(C)N=C2SC(C)C(=O)N2C1c1cccc(F)c1 (configuration not stated)	-12%	-24%
Cc1oc(-c2cccc(Cl)c2)nc1CN1CCCC(C(=O)NCc2ccc(Cl)cc2)C1 (configuration not stated)	-2%	-18%
O=C(c1ccc2c(c1)N(Cc1ccc(Cl)cc1)C(=O)c1ccccc1S2(=O)=O)N1CCC(Cc2ccccc2)CC1	-5%	-10%
O=C(CN(C1CCCCC1)S(=O)(=O)c1ccc(Cl)cc1)NCc1ccncc1	i	-14%
O=C(Nc1cc(Cl)ccc1N1CCOCC1)c1cccnc1	i	-6%
Cn1c(=S)c2[nH]c(SCCN)nc2n(C)c1=O	-20%	-20%
CC(C)(C)c1ccc(S(=O)(=O)NC(=O)C2(C)CCN2C(=O)Cc2cc(F)ccc2F)cc1 (configuration not stated)	3%	-6%
CCOc1cc2[nH]c(=O)n(CCCCC(=O)N3CCN(c4ccccc4OC)CC3)c(=O)c2cc1OCC	-21%	-14%
C[N+](C)(C)CCN1C(=O)CSC1=O	-2%	-23%
CCOc1ccc(NC(=O)Cn2nnc(C(=O)NCCc3ccc(OC)c(OC)c3)c2N)cc1	-17%	-6%
COc1ccc2cc(CCNS(=O)(=O)c3ccc(C)cc3)c(=O)[nH]c2c1	-3%	-7%
CCCNC(=O)CSc1nc(COc2ccccc2)nc2ccccc12	i	-1%
O=C1NCCN(Cc2cccc(Oc3ccccc3)c2)C1CC(=O)N1CCCCC1 (configuration not stated)	-12%	-12%
CCOC(=O)c1ccc(CC(=O)c2oc3cc(O)ccc3c2C)o1	-10%	11%
CC(=O)N1CC2(C)CN(C(C)=O)CC(C)(C1)C2O (configuration not stated)	i	-11%
Oc1c(C(c2cccs2)N2CCN(c3cccc(Cl)c3)CC2)sc2ncnn12 (configuration not stated)	-10%	2%
CC(=O)Oc1ccc(-c2csc(Nc3cccc(C)n3)n2)cc1	?	?
Cc1cc(C(=O)COc2ccc(Br)cc2F)c(C)n1CC1CCCO1 (configuration not stated)	-4%	-15%
Clc1nc(Cl)nc(NCCC2=CCCCC2)n1	i	-5%
Cc1ccc(S(=O)(=O)N2CCC(C(=O)Nc3ccccc3N3CCCC3)CC2)cc1C	-11%	-20%
CC1=NN(C(=O)c2csc(C)c2)C(O)(C(F)(F)F)C1 (configuration not stated)	i	-16%
CN(C)CCN(C(=O)/C=C/c1cccs1)c1nc2c(F)cc(F)cc2s1	-19%	?
CC(CC(=O)Nc1cc(C(F)(F)F)ccc1Cl)c1ccccc1 (configuration not stated)	-13%	-13%
OCC1(CO)CCCC(CO)(CO)C1O	-3%	-5%
Cc1ccccc1C(=O)O/N=C(\N)c1ccncc1	i	-2%
CC(C)Cn1c(=O)c2c(nc3n2CCS3)n(C)c1=O	i[7.34 µM]	-6%[7.34 µM]
COc1cc(OC)cc(C(=O)Nc2ccc(-c3nc4ccccc4s3)cc2C)c1	-7%	-9%
Cc1ccc(NC(=O)CSc2nccn2C)cc1S(=O)(=O)N1CCOCC1	i	-9%
COc1cccc(C(=O)Nc2cccc(C(C)=O)c2)c1	-3%	0%
COc1cccc(C(=O)Nc2cccc3ccccc23)c1OC	-7%	-12%
CCOC(=O)[C@H]1[C@H]2COc3ccccc3[C@@H]2N2C(=O)c3cc(F)c(F)cc3NC(=O)[C@@]12C	-8%	-6%

Taken from above.
COc1ccc(CNC(=O)C2CCN(C(=O)Cc3ccccc3)CC2)cc1 in VACV mCherry inh has -1%
Cc1ccc(S(=O)(=O)N2CCC(C(=O)Nc3ccccc3N3CCCC3)CC2)cc1C in VACV mCherry inh has -11%

Next records
SMILES	VACV mCherry inh	Vaccinia Venus
CCOc1ccccc1N(C)C(=O)c1cc(S(=O)(=O)NCCc2ccc(Cl)cc2)ccc1F	-12%	-16%
Cc1ccc(NC(=O)CSc2ncc3c(n2)-c2ccc(Cl)cc2N(C)S3(=O)=O)cc1F	-18%	-8%
COc1ccc(/C=N/NC(=O)c2cc(Br)ccc2O)cc1Cn1cc(Cl)cn1	i	-8%
CN1CCOC1c1ccc(C2OCCN2C)cc1 (configuration not stated)	-12%	-4%
CCNc1nc(NC(C)(C)C)nc(N2CCCCC2)n1	-22%	-21%
COc1cc(C(=O)OCC(=O)NC(=O)NCc2ccccc2)ccc1OC(F)F	-19%	-18%
O=C(CN1CCCC1)Nc1nc(-c2ccc(Cl)cc2)cs1	-18%	-9%
COc1ccc(NC(=O)CCn2cccc2)cc1	/	-3%
CO/N=C/NC(=O)Cc1cn(-c2ncc(C(F)(F)F)cc2Cl)c2ccccc12	/	?
COc1ccc(OC)c(NC(=O)Cc2c(C(=O)O)n(C)c3ccccc23)c1	-23%	-7%
O=[N+]([O-])c1ccc(N2CCOCC2)cc1NC(c1ccccc1)c1ccccc1	-30%	-10%
CC1(C(=O)NS(=O)(=O)Cc2ccccc2C(F)(F)F)CCN1C(=O)C/C=C/c1ccccc1 (configuration not stated)	30%[activator]	2%
Cc1cc(C(F)F)n2nc(C(=O)Nc3cccnc3Cl)nc2n1	-16%	-9%
Cc1ccc(-n2cc(CN3CCC(O)(c4ccccn4)CC3)c(-c3ccc(F)cc3)n2)cc1	?	?
Cc1cc(N2CCN(C)CC2)nc2ccc(NC(=O)Nc3ccc(F)cc3)cc12	-21%	-25%
COc1ccccc1C(=O)N(Cc1ccc(C)o1)C1CCS(=O)(=O)C1 (configuration not stated)	i	-5%
CC(C)Cc1cc(C(=O)NCc2cccs2)no1	-3%	-1%
Cc1ccc(C(=O)c2coc3cc([N+](=O)[O-])c(O)c([N+](=O)[O-])c23)cc1	-17%	-23%
O=C(/C=C/c1ccccc1)NC(=S)Nc1ncccn1	-9%	-29%
Cn1c(-c2sc(=S)n(-c3ccccc3)c2N)nc2ccccc21	/	-7%

Some of the entries so far, field by field.
Cc1ccc(Cl)cc1NS(=O)(=O)c1cc2c3c(c1)CC(=O)N3CCC2
  VACV mCherry inh: -17% | Vaccinia Venus: -10%
Cc1ncc2c(c1CNC(=O)c1ccc3c(c1)OCO3)CCN(C(=O)c1csc3c1CCCC3)C2
  VACV mCherry inh: -15% | Vaccinia Venus: -6%

Next entries.
SMILES	VACV mCherry inh	Vaccinia Venus
COC(=O)C1Cc2ccccc2CN1S(=O)(=O)c1ccc(F)cc1 (configuration not stated)	i	-14%
Cn1nc(NC(=O)C(C)(C)C)c2c(F)cccc21	i	-13%
Cc1ccc(NS(=O)(=O)c2cccc(C(=O)NCC(c3cccs3)N(C)C)c2)cc1 (configuration not stated)	-19%	-19%
Cc1ccc(Cn2ncn(-c3ccccc3)c2=O)cc1	i	-5%
